# Screens: PubChem, National Center for Advancing Translational Sciences (NCATS)
# Cruzain inh noDet = inhibitors of Trypanosoma cruzi cruzain without detergent; Potency, µM, inactives show max response, negative = inhibition, hits mostly inhibitors; P25779; purified cruzain, Z-FR-AMC fluorescence, no detergent; actives 2.3% (n = 200,000); active = well fitted curve in the direction sought with a large enough effect; inconclusive = small, poorly fitted or top-dose-only effect, or another doubt; inactive = no such curve, though single readings can be large; an effect the other way counts as inactive or inconclusive;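 also: plate controls were enzyme without inhibitor for no effect and buffer without enzyme for full effect; nearly all actives have a fitted effect of over 40% in size; top concentration of the series not given in the record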
# Target sequence (P25779 123-467 limits assumed): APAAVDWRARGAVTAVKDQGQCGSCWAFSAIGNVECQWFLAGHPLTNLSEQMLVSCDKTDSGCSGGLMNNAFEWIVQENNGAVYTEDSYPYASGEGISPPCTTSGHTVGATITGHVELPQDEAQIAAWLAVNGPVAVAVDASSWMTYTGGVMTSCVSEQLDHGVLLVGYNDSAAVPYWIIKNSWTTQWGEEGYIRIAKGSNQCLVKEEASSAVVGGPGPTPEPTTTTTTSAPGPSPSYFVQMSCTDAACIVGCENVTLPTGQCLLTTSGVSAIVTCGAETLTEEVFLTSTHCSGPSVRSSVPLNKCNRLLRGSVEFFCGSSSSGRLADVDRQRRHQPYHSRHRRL
#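 Detergent-free condition (0.00005% Triton X-100) in acetate buffer pH 5.5 with DTT. 1.5 nM enzyme and compound were pre-mixed 15 min, then 2 uM Z-FR-AMC substrate added; reaction progress from fluorescence change between first and third reads (60 s).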
# StopGo reporter = FMDV 2A StopGo reporter, luciferase signal | human cells with a luciferase reporter of 2A StopGo recoding; control for the full effect not named in the record | Potency, µM (highest dose often 57.9 µM), inactives show at the highest dose signal change, negative = less light | actives 1.2% (n = 410,000) | AID 1159524; active = well fitted falling curve with a large enough effect; inconclusive = small, poorly fitted or top-dose-only effect; inactive = no such curve, though single readings can be large or run the other way; tested in HEK293T cells; also: % is scaled to controls: 0 for no effect and ±100 for the full control effect; nearly all actives have a fitted effect of over 45% in size; luciferase light after 4 h
# NS1 function inh = blocks influenza NS1 protein function; S. cerevisiae slowed by influenza A NS1, growth recovery by OD600; Potency, µM (top dose mostly 46.1 µM), for inactives: at the highest dose activity, positive = more growth; actives 0.4% (n = 270,000); also: actives are rising curves; nearly all actives have a fitted effect of over 50% in size
#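 In this qHTS, NS1 from influenza A is expressed in budding yeast, where it slows growth. Cells are switched from glucose to 2% galactose medium (pH 6.0, -URA), treated with compound, and growth recovery is read at OD600.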
# LASV entry inh = inhibitors of Lassa virus binding or cell entry; Lassa virus pseudotype entry inhibition, cell reporter; control for the full effect not named in the record; Potency, µM (highest dose often 37.9 µM), for the others: top-dose activity change, negative = inhibition, most hits filed as inhibitors; actives 1.2% (n = 300,000); AID 540256; active means well fitted inhibition curve with a large enough effect; inconclusive means small, poorly fitted or top-dose-only effect, or effect the other way; inactive means flat fitted curve, though single readings scatter; tested in HEK293 cells; also: % is scaled to controls: 0 for no effect and ±100 for the full control effect; nearly all actives have a fitted effect of over 50% in size; luciferase read-out
# Marburg entry inh = blocks Marburg virus binding to or entry into cells; Potency, µM (doses to about 37.8 µM), for inactives: at the highest dose activity change, negative = inhibition, hits mostly inhibitors; actives 1.8% (n = 300,000); Marburg virus pseudotyped entry inhibition, cell reporter; control for the full effect not named in the record; about a third of the inactives were read at about 46 µM; active = well fitted inhibition curve with a large enough effect; inconclusive = small, poorly fitted or top-dose-only effect, or effect the other way; inactive = flat fitted curve, though single readings scatter; tested in HEK293 cells; about a fifth of its hits are not listed in these tables; also: % is scaled to controls: 0 for no effect and ±100 for the full control effect; luciferase read-out
# SARS PLP yeast = inhibitors of SARS-CoV papain-like protease in yeast. S. cerevisiae expressing SARS-CoV PLpro, growth rescue; control for the full effect not named in the record. Potency, µM (titrated, usually from 32.9 µM), inactives show top-dose activity, positive = growth rescue. actives 0.19% (n = 330,000). AID 485353; also: 0% is about no effect; nearly all actives have a fitted effect of over 55% in size; growth read by luminescence after 48 h
# RE007 growth inh = less growth of the S. pombe RE007 Vpr strain. Potency, µM (doses to about 92.2 µM), without a hit: at the top dose activity change, negative = less growth. S. pombe RE007 Vpr strain, BacTiter-Glo ATP luminescence, 24 h; control for the full effect not named in the record. actives 0.21% (n = 360,000). AID 651644; active = well fitted falling curve with a large enough effect; inconclusive = small, poorly fitted or top-dose-only effect; inactive = no such curve, though single readings can be large or run the other way;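 also: % is scaled to controls: 0 for no effect and ±100 for the full control effect; nearly all actives have a fitted effect of over 50% in size; the assay follows cell death caused by Vpr and the record does not say whether a fall means rescue or toxicity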
#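 Fission yeast strain RE007, carrying one chromosomally integrated HIV-1 vpr copy, was seeded at OD 0.01 in PMG+AL medium with 23 nL pinned compound. After 24 h at 30 °C and 99% humidity, viability was read by BacTiter-Glo luminescence.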
# Cruzain Triton = inhibitors of Trypanosoma cruzi cruzain with detergent. purified cruzain, Z-FR-AMC fluorescence, 0.01% Triton. Potency, µM, for the others: max response, negative = inhibition, most hits filed as inhibitors. actives 0.43% (n = 200,000); active = well fitted curve in the direction sought with a large enough effect; inconclusive = small, poorly fitted or top-dose-only effect, or another doubt; inactive = no such curve, though single readings can be large; an effect the other way counts as inactive or inconclusive;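 also: plate controls were neutral wells for no effect and buffer without enzyme for full effect; nearly all actives have a fitted effect of over 40% in size; top concentration of the series not given in the record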
#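 15 min RT preincubation of 1.5 nM cruzain with compound, then 2 uM Z-FR-AMC added; kinetic AMC fluorescence, 60 s delta. Triton X-100 0.01%, pH 5.5.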
# The depositor's hits bear a star; ? = inconclusive; . = no result given; & = joins results of further samples; [ ] = remark or other dose. Unless noted, calls follow the shape of the dose curve; as a rule, active means well fitted rising curve with a large enough effect; inconclusive means small, poorly fitted or top-dose-only effect; inactive means no such curve, though single readings can be large or run the other way. Potency is read from the fitted curve at half-maximal effect.
canonical_smiles	SARS PLP yeast	RE007 growth inh	Cruzain inh noDet	Marburg entry inh	LASV entry inh	NS1 function inh	StopGo reporter	Cruzain Triton
COCC(=O)N1CCC(Oc2ccc(C(=O)NC(C)c3nccs3)cc2)CC1 (stereo not drawn)	1%	0%	.	1%	-4%	14%	9%	.
Cc1ccc(N(C)C(=O)N2CCN(S(=O)(=O)c3c(C)cc(C)cc3C)CC2)cc1	-3%	-6%[3.69 µM]	?	9%	5%	-62%	17%	-7.4%
CCC1(c2ccccc2)NC(=O)N(CC(=O)NCc2ccc(C)cc2)C1=O (stereo not drawn)	0%	1%	.	?	?	6%	-7%	.
COC(=O)c1cn(CC(=O)N2CCCCC2C)c2ccccc12 (stereo not drawn)	-4%	18%	-1%	5%	-2%	-4%	7%	11%
N#Cc1ccsc1NC(=O)CSc1ncnc2ccccc12	2%	-2%	16µM*	10%	18%	19%	?	-8.3%
NC(=O)c1cc(Cl)ccc1OCC(=O)NC1CC1	6%	13%	.	-1%[46.1 µM]	?	.	22%	.
COc1ccc(CNC(=O)c2nn(C)c3c2CS(=O)(=O)c2ccccc2-3)cc1	-11%	2%	8%	.	-15%[46.1 µM]	0%	-11%&-16%	-1.0%
Cc1nn(-c2ccccc2)c(Cl)c1/C=N/Nc1ccc(S(=O)(=O)Nc2ccccc2C(=O)O)cc1[N+](=O)[O-]	?	-1%	?	4%&6%	-10%	?	14%	14µM*
COc1ccccc1Nc1nc2cc(C)ccc2cc1C#N	4%	11%	.	7%[46.1 µM]	-11%	-3%	13%	.
CCOC(=O)c1c(NC(=S)Nc2ccccc2)sc2c1CCN(CC)C2	-21%	-7%	-5%	0%	3%	-6%	-16%	-4.7%
CCOc1ccc(C2/C(=C(/O)c3ccc(Cl)cc3)C(=O)C(=O)N2CCCN(C)C)cc1OC (stereo not drawn)	4%	.	1%	0%	.	1%	.	1.6%
CCCOc1ccc(C(=O)Nc2ccc(N(C)C)cc2)cc1	-5%	-5%	-6%	-19%	-30%	13%	.	-1.6%
CC(=O)OC1OCCOC1NC(=S)Nc1cccc(C(F)(F)F)c1 (stereo not drawn)	0%	3%	.	8%[46.1 µM]	2%[46.1 µM]	.	8%	.
CC(=O)NC12CC3CC(C1)CC(C(=O)N(C)CC(=O)Nc1ccccc1Cl)(C3)C2	-8%	5%	.	0%	0%	.	-22%	.
O=C(OCc1ccc(-c2ccccc2)cc1)c1cccc(O)c1	-15%	?	.	6%[46.1 µM]	?	-47%	52%[activator]	.
COc1ccc(/C=C2/SC(=S)N(n3c(C)ccc3C)C2=O)cc1	13%	17%	25µM*	1%[46.1 µM]	12%	10%	?	-5.4%
Cc1ccc(C)c(NC(=O)CSc2nccn2Cc2ccco2)c1	2%	7%	.	17%[46.1 µM]	-5%[46.1 µM]	5%	22%	.
CCOc1cc(NC(=S)NCC2CCCO2)c(OCC)cc1NC(=O)c1ccccc1C (stereo not drawn)	4%	-5%	9%	12%	-6%	17%	-24%	-1.9%
O=C(CC1C(=O)N(c2ccccc2)C(=O)N1CCc1cccs1)Nc1ccc(F)cc1 (stereo not drawn)	.	.	3%	?	-14%[46.1 µM]	.	36%[activator]	-3.4%
Cc1nn(C)c(C(=O)NCc2ccc(Cl)cc2)c1Cl	-25%	-17%	10%	?	-8%	0%	?	0.4%
Cc1nn(C)cc1C(C(=O)NC1CCCCC1)N(Cc1ccccc1Cl)C(=O)c1cnccn1 (stereo not drawn)	0%	-7%	.	.	.	4%	35%[activator]	.
COc1ccc(C(=O)C2CCCN(Cc3cccn3-c3nccs3)C2)cc1OC (stereo not drawn)	-2%	-18%	.	.	.	2%	?	.
Cc1cc2c(SCC(=O)NC3CCCCC3)ncnc2s1	0%	12%	.	2%[46.1 µM]	1%[46.1 µM]	9%	4%	.
COc1ccc(C(=O)N2CCN(Cc3ccccn3)CC2)cc1	-1%	4%	.	.	.	0%	-11%	.
Cc1cc(C(=O)Nc2ccc(F)cc2F)on1	-3%	-10%	.	.	.	-3%	5%	.
CC(C)N(Cc1ccccc1)C(=O)CN1C(=O)COc2ccc(S(=O)(=O)NC3CCCC3)cc21	-4%	7%	.	?	-27%&-11%[46.1 µM]	5%	17%&12%	.
CCC1CCCCN1C(=O)CSc1nc(N)cc(N)n1 (stereo not drawn)	0%	0%	.	.	.	2%	-4%	.
O=C(Nc1ccccc1C(=O)N1CCOCC1)C1CC(=O)N(C2CCCC2)C1 (stereo not drawn)	4%	5%	-13%	-1%	4%	2%	0%	-0.3%
CC(=O)c1cc2c(cc1NS(=O)(=O)c1cccc(C(=O)O)c1)OCO2	-3%	5%	.	9%[46.1 µM]	17%[46.1 µM]	4%	-8%	.
O=C(NNC(=O)c1cccnc1)Nc1cccc2ccccc12	6%	-15%	-2%	5%	2%	2%	-6%	5.2%
Nc1nc(C(c2ccccc2)c2ccccc2)cs1	-1%	1%	.	2%[46.1 µM]	2%	?	0%	.
COc1ccc(C(=O)Nc2ccccc2C(=O)Nc2ccccc2C(=O)O)cc1	-9%	8%	.	?	?	-70%	0%	.
Cc1ccc2[nH]c(O)c(N=Nc3ccccc3[N+](=O)[O-])c2c1	.	17%	.	?	23%	.	35%[activator]	.
CCCCCN1CC(=O)N2Cc3[nH]c4ccccc4c3C[C@H]2C1=O	0%	-9%	.	-3%[46.1 µM]	0%[46.1 µM]	-2%	-26%	.
COc1ccc(CNC(=O)CN(Cc2ccc(Cl)cc2)C(=O)c2csnn2)cc1	1%	-13%	.	-8%[46.1 µM]	?	-17%	-8%	.
COc1ccc(CCN2C(=O)N[C@@H](CCC(=O)O)C2=O)cc1	2%	20%	.	.	.	3%	0%	.
CNC(=O)c1cc2cc(OC)ccc2n1CCN(Cc1ccccc1)Cc1ccccc1	-8%	2%	6%	4%	-8%	-8%	-17%	2.0%
O=c1c(-c2ccc(O)cc2)coc2cc(OC3OC(CO)C(O)C(O)C3O)ccc12 (stereo not drawn)	2%	0%	-6%	15%	7%	-14%	46%[activator]	2.2%
Cc1cc(C)cc(NC(=O)CN2CCC(NC(=O)Cc3ccccc3)CC2)c1	3%	-9%	-5%	-6%	8%	-1%	.	-0.2%
CCc1ccc(NC(=O)N(CCN2CCOCC2)C2CCN(C(C)=O)CC2)cc1	-1%	-1%	-2%	9%	-3%	-13%	43%[activator]	3.5%

# Overlap with the part before: two compounds; new compounds follow.
canonical_smiles	SARS PLP yeast	RE007 growth inh	Cruzain inh noDet	Marburg entry inh	LASV entry inh	NS1 function inh	StopGo reporter	Cruzain Triton
Cc1cc(C)cc(NC(=O)CN2CCC(NC(=O)Cc3ccccc3)CC2)c1	3%	-9%	-5%	-6%	8%	-1%	.	-0.2%
CCc1ccc(NC(=O)N(CCN2CCOCC2)C2CCN(C(C)=O)CC2)cc1	-1%	-1%	-2%	9%	-3%	-13%	43%[activator]	3.5%
CCOc1cccc(-c2nnc(SCC(=O)Nc3ccc(OC)c(OC)c3)n2N)c1	-1%	-16%	0%	-2%	-2%	1%	-3%	2.7%
Cc1cc(/N=C/N(C)C)on1	2%	5%	6%	0%	11%	1%	-13%	2.9%
CN(C)C(/C=C/Nc1ccc(F)cc1F)=C(C#N)C#N	3%	-2%	-1%	1%	0%	13%	.	-1.1%
FC(F)(F)c1cc(Oc2ccccc2)ncc1-c1nnc(-c2ccccc2Cl)o1	-2%	16%	.	.	.	3%	-18%	.
COCCOC(=O)C1=C(C)N=c2s/c(=C\c3cccs3)c(=O)n2C1c1cccs1 (stereo not drawn)	4%	-3%	15%	-6%&-6%	-7%	-14%	?	-2.5%
Cc1c(C(=O)N2CCN(c3ccccn3)CC2)sc2ncnc(N3CCOCC3)c12	-7%	0%	-1%	-17%	-5%	-3%	.	3.2%
CCOC(=O)c1ccc(NC(=S)Nc2ccccn2)cc1	3%	-3%	-17%	?	?	?	37%[activator]	-0.2%
Cc1c(C)c2cc(Cl)c(OCC(=O)NC3CC(C)(C)NC(C)(C)C3)cc2oc1=O	-4%	0%	.	-14%[46.1 µM]	?	-1%	-5%	.
Cc1ccc(CS(=O)(=O)c2nc3c(c(N(C)C)n2)CCCC3)cc1	1%	3%	.	?	?	-3%	16%	.
COC(=O)c1ccccc1NC(=O)Cn1nc(C(F)(F)F)c2c1CCCC2	.	.	8%	?	14%[46.1 µM]	.	-28%	-11%
COc1ccc(C2c3ccc4ccccc4c3Oc3ncn(CCO)c(=N)c32)cc1 (stereo not drawn)	-3%	-21%	.	?	8.9µM*	3%	1%	.
COc1ccc(N2CCN(C(C)C(=O)N3CC(C)OC(C)C3)CC2)cc1 (stereo not drawn)	-3%	-1%	.	0%[46.1 µM]	0%	.	-7%	.
CC(OC(=O)c1ccc([N+](=O)[O-])s1)C(=O)Nc1ncc(Cl)cc1Cl (stereo not drawn)	-111%	-26%	-4%	1%	13%	-12%	-1%	-3.7%
COCCCNc1nc2c(c(=O)n(Cc3ccc(OC)cc3)c(=O)n2C)n1C	1%	9%	.	.	.	-4%	?	.

# Some values from the list.
# Reading of COc1ccc(N2CCN(C(C)C(=O)N3CC(C)OC(C)C3)CC2)cc1 (stereo not drawn) under LASV entry inh: 0%
# Reading of COC(=O)c1ccccc1NC(=O)Cn1nc(C(F)(F)F)c2c1CCCC2 under LASV entry inh: 14%[46.1 µM]
# Reading of CC(OC(=O)c1ccc([N+](=O)[O-])s1)C(=O)Nc1ncc(Cl)cc1Cl (stereo not drawn) under LASV entry inh: 13%
# Reading of COCCCNc1nc2c(c(=O)n(Cc3ccc(OC)cc3)c(=O)n2C)n1C under SARS PLP yeast: 1%
